RecA splice inh: blocks M. tuberculosis RecA intein splicing; P9WHJ3; cell-free RecA intein splicing, fluorescence; inhibition, %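 (about 9 µM by stock and volumes)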; hit rate 0.75% among 290,000; AID 2221; in the data active = inhibition above about 30%; inconclusive = no clear call, values can overlap the other calls;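 note: 0% = vehicle wells and 100% = reference inhibitor control wells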
Target sequence (P9WHJ3 whole entry, looked up, canonical isoform): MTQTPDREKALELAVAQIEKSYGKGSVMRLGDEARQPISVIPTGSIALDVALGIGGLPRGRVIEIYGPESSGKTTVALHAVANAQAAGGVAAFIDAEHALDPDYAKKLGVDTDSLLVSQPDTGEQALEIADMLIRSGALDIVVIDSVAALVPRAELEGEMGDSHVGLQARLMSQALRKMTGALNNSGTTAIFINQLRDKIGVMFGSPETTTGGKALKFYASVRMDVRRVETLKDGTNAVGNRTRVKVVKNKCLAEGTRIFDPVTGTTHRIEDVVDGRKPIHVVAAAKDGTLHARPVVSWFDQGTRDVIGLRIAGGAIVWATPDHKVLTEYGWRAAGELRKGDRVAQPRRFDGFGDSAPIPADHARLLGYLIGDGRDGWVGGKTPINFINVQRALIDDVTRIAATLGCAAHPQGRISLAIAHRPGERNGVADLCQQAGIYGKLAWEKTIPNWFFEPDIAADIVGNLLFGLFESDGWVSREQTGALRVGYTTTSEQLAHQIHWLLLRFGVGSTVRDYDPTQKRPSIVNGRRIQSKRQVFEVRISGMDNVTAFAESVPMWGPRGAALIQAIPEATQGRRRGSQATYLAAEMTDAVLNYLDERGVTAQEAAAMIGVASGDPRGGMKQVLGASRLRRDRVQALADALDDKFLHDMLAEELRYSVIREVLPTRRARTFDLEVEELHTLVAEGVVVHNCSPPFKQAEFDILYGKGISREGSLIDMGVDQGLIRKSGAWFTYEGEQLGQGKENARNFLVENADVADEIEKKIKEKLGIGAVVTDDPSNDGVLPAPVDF
Mtb betalactam: beta-lactam sensitization of Mtb H37Rv. M. tuberculosis H37Rv growth with meropenem, percent inhibition; hits of this screen are not shown here. inhibition, % at 25 µM. hit rate 0.27% among 330,000. AID 434955;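 active = about 74% or more and at least 40 points above the plate without the antibiotic, then above 30% in a dose series; inconclusive = first-round hits that could not be retested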;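 note: growth measured after seven days incubation then overnight dye step; 0% = bacteria only wells and 100% = bacteria with antibiotic; twin plates without the antibiotic show which effects depend on it; some results filed as inactive read as strong as hits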
Arbovirus inh: antivirals against arbovirus infection; arbovirus infection cell-based antiviral screen; inhibition, % at 10 µM; hit rate 0.37% among 200,000;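 active = inhibition from about 30%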;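 note: bluetongue infection of BSR cells; cell survival read as ATP light after 72 h; 0% = infected wells without compound and 100% = uninfected wells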
Mtb growth: M. tuberculosis H37Rv growth inhibitors, H37Rv strain (AID 1626). M. tuberculosis H37Rv growth inhibition; higher % means a stronger effect. inhibition, % at 10 µM, or IC50 in µM where a hit was titrated. hit rate 0.95% among 220,000;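 active = confirmed in a dose series; inconclusive = inhibition above 80% but not taken into the dose series; inactive = below 80% or under 30% at every dose of the series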;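 note: bacteria incubated seven days before Alamar blue readout; 0% = bacteria only wells and 100% = bacteria with antibiotic wells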
YopH inh: YopH (Yersinia) phosphatase inhibition; fluorescence Ex485/Em525; inhibition, %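 (about 10 µM by stock and volumes)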; hit rate 0.16% among 140,000;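 active = inhibition of 50% or more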;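 note: controls were vehicle for no effect and minimum signal wells for full effect; inactives centre near -20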
Arbovirus inh repeat: second read-out of Arbovirus inh, no call of its own (marks repeat the call); inhibition, %; measured here: 10K subset replicate screen; many hits read low in the repeat;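 first of two repeat runs on a subset; 0% = infected and 100% = uninfected wells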
Starred values were filed as active, the others as inactive; ? = inconclusive; nt = no result given. The list is partial (hit frequency here may not be typical).

A first look, four compounds:
SMILES | RecA splice inh | Mtb betalactam | Arbovirus inh | Mtb growth | YopH inh | others
COC(=O)Cn1cc(C(=O)c2ccccc2F)c2ccccc21 | -1.9 | 0 | nt | nt | nt
CC(=O)N1N=C(c2ccco2)CC1c1ccc(C)cc1 (stereo unspecified) | 2.4 | -1 | -21 | -5% | -11
Cc1cc2c(=O)n(Cc3ccco3)c(SCC(=O)c3ccc(Cl)s3)nc2s1 | 1.3 | ? | -5 | 0% | -12
COc1cc(Br)cc2cc(C(=O)N3CCN(C(=O)c4ccco4)CC3)c(=O)oc12 | 2.3 | -8 | 2 | -11% | -37

Results, from the start:
SMILES | RecA splice inh | Mtb betalactam | Arbovirus inh | Mtb growth | YopH inh | others
COC(=O)Cn1cc(C(=O)c2ccccc2F)c2ccccc21 | -1.9 | 0 | nt | nt | nt
CC(=O)N1N=C(c2ccco2)CC1c1ccc(C)cc1 (stereo unspecified) | 2.4 | -1 | -21 | -5% | -11
Cc1cc2c(=O)n(Cc3ccco3)c(SCC(=O)c3ccc(Cl)s3)nc2s1 | 1.3 | ? | -5 | 0% | -12
COc1cc(Br)cc2cc(C(=O)N3CCN(C(=O)c4ccco4)CC3)c(=O)oc12 | 2.3 | -8 | 2 | -11% | -37
Cc1cc(C)c(C#N)c(Nc2ccc3c(c2)OCCO3)n1 | -1.0 | -4 | 0 | -6% | -30 | Arbovirus inh repeat=-4
O=C(C1CC1)N1CCc2cc(Br)cc(S(=O)(=O)N3CCCCCC3)c21 | 0.7 | -2 | 0 | -8% | -31 | Arbovirus inh repeat=1
COc1ccc(-n2c(Cn3c(=O)sc4ccccc43)nnc2SCC(=O)N2CCCC2)cc1 | nt | -5 | -1 | -15% | -3 | Arbovirus inh repeat=-1
Fc1ccccc1COc1ccc(/C=N/NC(=S)NCc2ccccc2)cc1 | -1.0 | 3 | -26 | -1% | -24
COc1ccc(-n2c(SCc3ccc([N+](=O)[O-])cc3)nnc2-c2ccc(C)cc2)cc1 | 2.2 | 0 | -8 | 12% | -5
O=C1NC(=Nc2ccc(O)cc2)S/C1=C/c1ccco1 | 0.1 | 0 | -18 | -21% | nt
O=C(Nc1ccc2c(c1)OCO2)c1cccc(F)c1 | 1.9 | -7 | -6 | 2% | -24
Cc1cccc(N2CCN(Cc3ccoc3)CC2)c1C | -2.0 | 1 | 4 | 3% | 6
O=C(COC(=O)c1cc(Br)ccc1O)NC1CCCCCC1 | 3.6 | 87 | nt | nt | nt
C[C@H](NC(=O)c1ccco1)C(=O)Nc1cccc([N+](=O)[O-])c1 | 1.1 | -3 | 14 | -4% | nt
Cc1cc(C)nc(NNC2=CC(=[N+]3CCCC3)CCC2)n1 | 0.6 | 1 | -7 | -2% | nt
COc1ccc(S(=O)(=O)N2CCN(CC(=O)NC3CC3)CC2)cc1 | 0.3 | 6 | nt | nt | nt
OCCC1CN(CC(c2ccccc2)c2ccccc2)CCN1C1CCCC1 (stereo unspecified) | 0.9 | 1 | -21 | 3% | nt
N#Cc1c(SCC(N)=O)nc(-c2ccccc2)c2c1CCCC2 | 1.5 | 12 | -5 | 4% | -28
CCOc1cc(N2CCOCC2)c(OCC)cc1NC(=O)CSc1n[nH]c(N)n1 | -6.1 | -1 | 0 | 1% | nt
CCOc1ccc(N(CC(=O)OC)S(=O)(=O)c2ccc(OC)c(OC)c2)cc1 | 2.0 | -1 | 4 | -10% | 6 | Arbovirus inh repeat=4
COC(=O)c1sc2ncn(CC(=O)N(C)C3CCCCC3)c(=O)c2c1C | -1.3 | 4 | nt | nt | nt
COc1ccc(C(=O)O/N=C/c2ccc(S(=O)(=O)c3ccc(Cl)cc3)nc2)cc1 | 2.5 | -7 | nt | nt | nt
COc1ccccc1NC(=O)c1ccc(S(=O)(=O)N2CCCC(C)C2)cc1 (stereo unspecified) | 4.7 | -5 | nt | nt | nt
COc1cc(OC)cc(C(=O)Nc2nnc(Cc3ccc(OC)c(OC)c3)s2)c1 | -0.2 | 2 | -14 | 7% | nt
O=C(CNC(=O)c1cccc(Br)c1)N/N=C/c1ccc[nH]1 | 3.1 | 8 | 15 | -2% | nt
COC(=O)[C@@]1(Cc2ccc(F)cc2)[C@H]2c3cc(C(=O)N4CCCC4)n(Cc4ccc(C(F)(F)F)nc4)c3C[C@H]2CN1C(=O)c1ccccc1 | 13 | 7 | -13 | 5% | -22
O=C(NCCn1ccc2ccccc21)c1ccc(S(=O)(=O)N2CCOCC2)cc1 | 0.2 | 6 | -4 | 4% | -8 | Arbovirus inh repeat=-6
O=C(c1cc(-c2ccccc2)nc2ccccc12)N1CCN(c2ccccn2)CC1 | 5.9 | -9 | -15 | -3% | 8
COc1cccc(NC(=O)c2ccc3nc(C)sc3c2)c1 | 2.2 | 2 | nt | nt | nt
CCC(=O)N1CCc2cc(Br)cc(S(=O)(=O)NCCN3CCCC3)c21 | 1.4 | -9 | nt | nt | nt
O=C(CSc1nnc(SCc2cccc3ccccc23)s1)N=Nc1c(O)[nH]c2ccccc12 | nt | 3 | -23 | 34% | -15
Cc1ccc[n+](CC(=O)Nc2ccc([N+](=O)[O-])cc2)c1 | -1.4 | -6 | nt | nt | nt
CC(C)(C)c1ccc(C(=O)Nc2cnccn2)cc1 | 5.6 | 33 | -19 | -6% | 18
CCOC(=O)Nc1ccc(C(=O)Oc2ccccc2)c(O)c1 | 0.4 | 99 | 11 | <0.2µM* | -12
COc1ccc(S(=O)(=O)N2CCc3cc4c(cc3C2C)OCCCO4)cc1 (stereo unspecified) | 1.1 | -8 | nt | nt | nt
O=C(O)C1Nc2c(C(=O)N3CCOCC3)cccc2C2C=CCC12 (stereo unspecified) | 7.4 | 6 | -5 | -9% | -21
COc1ccc(CC(=O)c2cc(OC)c(OC)cc2CC(=O)O)cc1OC | -6.5 | -3 | 13 | -5% | -28
COc1ccccc1NC(=O)NC(=O)N(C(C)C)S(C)(=O)=O | 0.3 | -4 | 14 | -5% | -21
C1=Nc2c(Nc3ccccc3)ncnc2Oc2ccccc21 | 3.7 | -11 | -7 | 3% | -52
COc1ccccc1NC(=O)COC(=O)C1C2CC3OC(=O)C1C3C2 (stereo unspecified) | 0.1 | 0 | nt | nt | nt
CCN(CC)C(=O)C1CCCc2c1[nH]c1ccc(Cl)cc21 (stereo unspecified) | -4.9 | -3 | 8 | 2% | -10
CCc1ccccc1OCCCCN1CCCCC1 | -1.9 | -8 | nt | nt | nt
Nc1[nH]c(N=NC(=O)c2ccccc2O)c2ccccc12 | -4.0 | 3 | -32 | 11% | -44
CCOC(=O)C1CN(S(=O)(=O)c2ccc(OC)cc2)c2cc(S(=O)(=O)CC)ccc2O1 (stereo unspecified) | -3.7 | 2 | 1 | -5% | -18
CC(=O)NCCc1nc2cc(NC(=O)COc3ccc(C)cc3)ccc2n1C | 0.4 | -3 | nt | nt | nt
Cc1cc(C)n(-c2cc(-n3nc(C)cc3C)ncn2)n1 | -0.8 | -6 | 0 | -8% | -36
Cc1ccc(OCCNC(=O)c2cccc(Oc3ccc(C(F)(F)F)cc3[N+](=O)[O-])c2)cc1 | -2.0 | 5 | -8 | 1% | -5
CC(=O)NC(Cc1ccccc1C)C(=O)NC1CCN(c2ncccc2[N+](=O)[O-])CC1 (stereo unspecified) | 4.8 | -1 | -3 | 2% | -29
CCOC(=O)N1CCC(Nc2nc3ccccc3n3cnnc23)CC1 | -2.2 | 0 | 1 | 4% | -11 | Arbovirus inh repeat=3
COc1ccc(Cc2nc3ccccc3c(=O)n2N)cc1OC | 0.9 | -1 | nt | nt | nt
Next records follow.
SMILES | RecA splice inh | Mtb betalactam | Arbovirus inh | Mtb growth | YopH inh | others
COc1ccccc1C(=O)NNC(=O)c1nn(Cc2ccccc2)c(=O)c2ccccc12 | 3.1 | 54 | -34 | 3% | nt
COc1ccc(C(=O)Nc2ccnn2C2CCN(Cc3cn(C)nc3C)CC2)cc1 | -2.0 | -4 | nt | nt | nt
COc1ccccc1NC(=O)c1ccccc1NC(=O)c1ccccc1C(=O)O | 2.9 | -7 | nt | nt | nt
O=C(COC(=O)CCSc1ccc(Cl)cc1)NCc1ccc(Cl)cc1 | 11 | -6 | 1 | 2% | -18
CCCCN1CC(O)=C(c2nc(-c3ccc(Cl)cc3)cs2)C1=N | -0.5 | -5 | 5 | -2% | -6
CCOc1ccccc1NC(=O)COc1ccc(S(=O)(=O)N2CCCC2)cc1 | 1.0 | 10 | nt | nt | nt
COc1ccc(NC(=O)CN(C)C(=O)CN2C(=O)C3CCCCC3C2=O)cc1 (stereo unspecified) | -0.6 | -12 | nt | nt | nt
O=C1CNC(=S)N1c1nc(-c2ccccc2)cs1 | -0.8 | 2 | -5 | 2% | -21
CS(=O)(=O)N(CC(=O)Nc1ccc(C(N)=O)cc1)C1CCCCC1 | -0.1 | -1 | 2 | -7% | -11
CCCCCN(C(=O)CCC(=O)OCc1ccccc1F)c1c(N)n(CCCC)c(=O)[nH]c1=O | -1.8 | -13 | nt | nt | nt
CN(C)c1ccc(/C=C/c2cc[n+](C)c3ccccc23)cc1 | nt | nt | 4 | -6% | nt
CC1CCN(C(=O)C2CCC(=O)N(Cc3ccc(Cl)cc3)C2)CC1 (stereo unspecified) | -2.4 | 2 | nt | nt | nt
Cc1cccc(C(=O)NCC(=O)NCC(c2cccs2)N2CCOCC2)c1 (stereo unspecified) | 1.3 | -2 | nt | nt | nt
O=C(O)C1CC1C(=O)Nc1cc(F)ccc1F (stereo unspecified) | 0.9 | 4 | 1 | 6% | nt
Cc1ccc(N2C(=O)CS(=O)C(c3ccccc3)C2=O)cc1C (stereo unspecified) | 21 | -2 | 7 | 4% | nt
Oc1ccc2c(c1)c1c3n2CCNC3CCC1 (stereo unspecified) | -6.2 | 1 | nt | nt | nt
Cn1c(N)c(C(C[N+](=O)[O-])c2c(F)cccc2Cl)c(=O)n(C)c1=O (stereo unspecified) | -2.1 | 100 | nt | nt | nt
Clc1ccc(Sc2ccccn2)cc1 | -0.7 | -5 | nt | nt | nt
COc1cc(CC(=O)O)ccc1O | -4.1 | -1 | nt | -10% | nt
CCCCN(C)CCNC(=O)CN1C(=O)CSc2ccc(S(=O)(=O)N3CCOCC3)cc21 | 1.6 | -4 | nt | nt | nt
CCCCCn1cc(C(=O)C(=O)N2CCOCC2)c2ccccc21 | 1.3 | ? | nt | nt | nt
CN(c1ccccc1)S(=O)(=O)c1cc(C(=O)OCC(=O)N2CCN(C(=O)c3ccco3)CC2)ccc1Cl | 0.7 | 6 | 4 | 1% | nt
Cc1ccc(CCNS(=O)(=O)c2cc3c(cc2Cl)NC(=O)CO3)cc1 | 1.4 | 1 | nt | nt | nt
CCOC(=O)N1CCC(NC(=O)C2CCCN(c3nc4ccccc4o3)C2)CC1 (stereo unspecified) | -0.1 | 1 | -7 | -4% | -34
OCC(Cc1ccccc1)Nc1c2ccccc2nc2ccccc12 (stereo unspecified) | -238 | -6 | -32 | 8% | -21
CN(Cc1c(C(=O)N/N=C/c2c(F)cccc2Cl)nnn1-c1nonc1N)c1ccccc1 | 0.4 | 3 | nt | nt | nt
C=C(C)CC1N(c2cccc(OC)c2)C(=O)C2C(C(=O)O)C3C=CC21O3 (stereo unspecified) | 0.1 | 1 | 3 | -8% | -34 | Arbovirus inh repeat=-1
COc1ccc(C(=O)NC(=S)Nc2cccc3nc(C)ccc23)cc1OC | 1.7 | 12 | nt | -2% | nt
CN(C)S(=O)(=O)c1cccc(N2C(=O)CC3(CCCCC3)CC2=O)c1 | -4.6 | 2 | 0 | 4% | nt
Cc1cc(=O)[nH]c(SCC(=O)NC(C)C2CC3CCC2C3)c1C#N (stereo unspecified) | -1.4 | -5 | 4 | -8% | nt
C=CCOc1c(Cl)cc(CNc2nccs2)cc1OC | 3.0 | 53 | -6 | 8% | nt
CCn1c(SCC(=O)Nc2nc(-c3ccccc3)cs2)nnc1-c1ccccc1 | 8.0 | 7 | 21 | 12% | -44
Cc1ccc(/C=N/N2CCN(Cc3cccc4ccccc34)CC2)s1 | 0.2 | 5 | nt | nt | nt
Cn1nc(C(=O)NC2CCCCC2)c2c1-c1ccccc1SC2 | -3.7 | 0 | nt | nt | nt
CC(/C=C1\SC(=S)N(CCCC(=O)Nc2ccc(C(=O)O)cc2)C1=O)=C\c1ccccc1 | 11 | 3 | 5 | -6% | -13
CCOC(=O)Cn1nc(C)c(NC(=O)c2ccc(Br)o2)c1C | -0.4 | 0 | nt | nt | nt
Cc1ccc(S(=O)(=O)N2CCCCC2)cc1C(=O)N1CCN(c2ccccn2)CC1 | 2.4 | -13 | -1 | 2% | nt
Cc1cc(C)c2c(n1)sc1c(N3CCN(C)CC3)ncnc12 | -1.1 | -4 | nt | 8% | nt
Nc1nc2n(n1)C1(CCCCC1)C1=C(CCCC1)N2 | 1.6 | -1 | 11 | -7% | -33
